GLA inh pH 4.5 – blocks human alpha-galactosidase A at pH 4.5; purified enzyme, 4-MU-alpha-Gal fluorescence, pH 4.5; activity change, negative = inhibition, % at 105 µM; 230,000 tested, under 10 active; AID 1467; inconclusive = small, poorly fitted or top-dose-only inhibition, or a rising curve; inactive = flat fitted curve, though single readings scatter; no compound was filed as active;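 further: 0% = full activity with enzyme and -100% = basal without enzyme; dose as in the result columns while the protocol names 77 µM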
Target sequence (P06280 whole entry, looked up): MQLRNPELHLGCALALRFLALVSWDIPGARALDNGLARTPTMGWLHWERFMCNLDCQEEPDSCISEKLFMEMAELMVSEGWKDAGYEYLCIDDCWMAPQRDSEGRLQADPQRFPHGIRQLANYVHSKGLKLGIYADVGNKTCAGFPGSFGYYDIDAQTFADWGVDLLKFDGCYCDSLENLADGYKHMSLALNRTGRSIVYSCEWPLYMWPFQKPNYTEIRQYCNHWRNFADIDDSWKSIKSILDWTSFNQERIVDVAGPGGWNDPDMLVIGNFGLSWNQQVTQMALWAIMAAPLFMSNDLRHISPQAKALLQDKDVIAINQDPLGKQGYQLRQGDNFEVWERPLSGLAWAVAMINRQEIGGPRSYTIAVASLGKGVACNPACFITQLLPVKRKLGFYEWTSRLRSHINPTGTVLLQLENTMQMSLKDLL
miR-21 FLuc – miR-21 reporter, rising signal; HeLa miR-21 FLuc reporter, luciferase, 48 h; Potency, µM (series often up to 38.3 µM), inactives show at the top dose reporter change, positive = more light; 340,000 tested, under 10 active; AID 2288; active = well fitted rising curve with a large enough effect; inconclusive = small, poorly fitted or top-dose-only effect; inactive = no such curve, though single readings can be large or run the other way;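 further: % of control where 0% means no effect; miR-21 action dims this reporter so a rising signal means less miR-21 action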
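Luminescence from a firefly luciferase reporter carrying a miR-21 binding site downstream, stably expressed under a CMV promoter in HeLa cells that make miR-21 endogenously, reports miRNA modulation after 48 h compound exposure up to approximately 40uM final.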
The depositor's hits bear a star; x = no result given; & = joins results of further samples. Only part of the results is shown; rates above refer to the full screens.

Under each structure – GLA inh pH 4.5	miR-21 FLuc
COc1c(O)cccc1O
→ -7	x
N[C@H](CO)Cc1cnc[nH]1
→ -1	x
CC1(C)OC2CC3C4CC(F)C5=CC(=O)CC[C@@]5(C)C4C(O)C[C@@]3(C)[C@]2(C(=O)CO)O1 (stereo partly drawn)
→ 4	x
CC(=O)SC1CC2=CC(=O)CC[C@]2(C)C2CC[C@@]3(C)[C@@H](CC[C@@]34CCC(=O)O4)C12 (stereo partly drawn)
→ -19	x
C[C@H](C[C@H](N)C(=O)O)C(=O)O
→ -10	x
C/C=C1\C2C=C(C)CC1(N)c1ccc(=O)[nH]c1C2 (stereo not drawn)
→ 2	x
N[C@H](Cn1ccc(=O)n(Cc2ccccc2C(=O)O)c1=O)C(=O)O
→ -2	x
O=C(O)c1cc2ccccc2c(Cc2cc3ccccc3c(C(=O)O)c2O)c1O (tested in a mixture with another compound)
→ 5	x
Nc1ncnc2c1ncn2[C@@H]1O[C@H](COP(=O)(O)OP(=O)(O)O)[C@@H](O)[C@H]1O
→ -6	x
N#CCCCS(=O)(=O)c1nnnn1-c1ccc(Br)cc1
→ -11	x
COc1cccc2c1C(=O)c1c(O)c3c(c(O)c1C2=O)C[C@@](O)(C(=O)CO)C[C@@H]3O[C@@H]1C[C@H](N)[C@H](O)[C@H](C)O1
→ -5	x
COc1cc(C=O)c([N+](=O)[O-])cc1OC
→ -6	x
Cn1nnnc1SCC1=C(C(=O)O)N2C(=O)[C@@H](NC(=O)[C@@H](O)c3ccccc3)[C@@H]2SC1
→ -8	x
COC(=O)N1C2=C(c3ccccc3[C@@H]1CC(=O)Nc1ccc3cc4ccccc4cc3c1)[C@@H]1C(=O)N(c3ccccc3)C(=O)[C@@H]1[C@H](C)C2
→ -5	x
COC(=O)[C@@H]1C[C@H]2CC[C@H](O)C[C@H]2N1Cc1c(F)cccc1Cl
→ 1	x

A second format for some results above.
structure | GLA inh pH 4.5 | miR-21 FLuc
C/C=C1\C2C=C(C)CC1(N)c1ccc(=O)[nH]c1C2 (stereo not drawn) | 2 | x
N[C@H](Cn1ccc(=O)n(Cc2ccccc2C(=O)O)c1=O)C(=O)O | -2 | x

Remaining list, next part
Under each structure – GLA inh pH 4.5	miR-21 FLuc
CC(C)C[C@@H](CC(=O)N[C@@H](CCCN)CC(=O)N[C@@H]1CCCC[C@H]1C(=O)N[C@H](CC(=O)N[C@@H](CCC(=O)O)CC(=O)O)Cc1ccccc1)NC(=O)[C@@H]1CNCC[C@H]1N
→ -1	x
Cc1cnc(CNc2ccnc(-c3ccc(C(=O)N(C)C)cc3)n2)cn1
→ -8	x
C/C1=C/CC(C)(C)/C=C/C/C(C)=C/CC1
→ 0	x
CCC[C@@H]1C[C@@]1(CCC)C(NC(=O)c1ccc(-c2ccccc2)cc1)c1cccc(Cl)c1 (stereo partly drawn)
→ -1	x
CC[C@H](C)[C@@H](NC(=O)O[C@@H]1C(=O)c2ccc(OC)cc2O[C@H]1c1ccc2c(c1)OCO2)C(=O)OC
→ 1	x
CC(C)CC(NC(=O)OCC1c2ccccc2-c2ccccc21)C(=O)O (stereo not drawn)
→ 3	x
COC(=O)c1ccc(C(NC(=O)OCc2ccccc2)/C(F)=C/[C@@H](C)C(=O)NC2CCCCC2)cc1 (stereo partly drawn)
→ 2	x
O=S(=O)(CCc1ccccc1)c1ccccc1
→ 0	x
CC(C)[C@@H](CC(=O)N[C@@H]1CCNC[C@H]1C(=O)N[C@H](CC(=O)N[C@@H](CCC(=O)O)CC(=O)O)Cc1ccccc1)NC(=O)C[C@H](Cc1c[nH]c2ccccc12)NC(=O)[C@@H]1CCCC[C@H]1N
→ 1	x
COc1ccc(-c2cc(=O)c3c(OC(C)=O)cc(OC(C)=O)cc3o2)cc1
→ -9	x
CC(=O)OCC1OC(Oc2cc(OC(C)=O)c3c(=O)cc(-c4ccc(OC(C)=O)cc4)oc3c2)[C@@H](OC(C)=O)C(OC(C)=O)C1OC(C)=O (stereo partly drawn)
→ -5	x
C=CCN1CCN(c2nc3ccccc3nc2C#N)CC1
→ -6	x
CNc1nc(-c2ccccc2C(F)(F)F)nc2ccccc12
→ 2	x
COc1ccc2c(c1)OCC(Cc1ccc(O)c(OC)c1)C2=O (stereo not drawn)
→ 14	x
CN(C)CCc1c[nH]c2ccc(CS(=O)(=O)N3CCCC3)cc12
→ 4	x
COCCNc1nc(-c2ccccc2CN(C)C)nc2ccccc12
→ 2	x
Cc1nc(NC2CCCCC2)c2nc(-c3ccccc3)n(CCCN3CCCCC3C)c2n1 (stereo not drawn)
→ -12	x
COC(=O)NC(/C=C/c1ccccc1)C(C(C)=O)C(=O)OC (stereo not drawn)
→ 3	x
COc1cccc(-c2cncnc2-n2ccnc2)c1
→ 0	x
CC(C)=CCc1c2c(c(O)c3c(=O)c(O)c(-c4ccccc4)oc13)C=CC(C)(C)O2
→ -6	x
COc1ccc2c(c1)c(CC(=O)NCc1ccc3c(c1)OCO3)c(C)n2C(=O)c1ccc(Cl)cc1
→ -1	x
COc1cccc([C@@H]2Oc3ccc(Br)cc3C[C@H]2OC(=O)Nc2ccc(OC(F)F)cc2)c1
→ -11	x
CCC1=C2CC[C@H]3C(=O)N(C)C(=O)[C@H]3[C@H]2[C@@]2(Cc3ccccc3)C(=NCCc3c[nH]c4ccccc34)OC(=O)N2C1=O
→ 1	x
CCCC[C@@H]1C[C@H]1C(NC(=O)c1ccccc1)c1ccc(C(=O)OC)cc1 (stereo partly drawn)
→ 2	x
CCC1=C2CC[C@H]3C(=O)N(CC(=O)OC)C(=O)[C@H]3[C@H]2[C@@]2(Cc3ccccc3)C(=NCCc3c[nH]c4ccccc34)OC(=O)N2C1=O
→ -6	x
COC/C=C/C1=CC2=CC(=O)C(C)(OC(=O)c3cnc4ccccc4n3)C(=O)C2=CO1 (stereo not drawn)
→ 2	x
COc1ccc2[nH]cc(CCNc3ccnc(-c4cccc(NS(C)(=O)=O)c4)n3)c2c1
→ -1	x
Cc1nc(NCc2ccccc2)c2nc(-c3ccccc3)n(CCCN3CCOCC3)c2n1
→ -1	x
CC(=O)NCC(=O)N[C@H](CCC(=O)O)C(=O)O
→ 1	x
CCCCc1cc2c(cn1)C(=O)C(C)(OC(C)=O)C(=O)C2 (stereo not drawn)
→ 0	x
CC(=O)N1CC=CC1(CC(C)C)C(=O)O (stereo not drawn)
→ -2	x
CCCC[C@@H]1C[C@H]1C(NC(=O)c1cccs1)c1ccc(Cl)cc1 (stereo partly drawn)
→ 1	x
CN(C)C(=O)/N=N/C(=O)N(C)C
→ -9	x
C#C[C@]1(O)CC[C@@H]2[C@H]3CCc4cc(OC)ccc4[C@@H]3CC[C@@]21C
→ 4	x
c1ccc(CNc2oc(-c3ccccc3)nc2-c2cccc3ccccc23)cc1
→ -3	x
N#Cc1cccc(-c2cncnc2-n2ccnc2)c1
→ -18	x
Cc1ccc(C(=O)Nc2ccc(S(=O)(=O)O)c3cc(S(=O)(=O)O)cc(S(=O)(=O)O)c23)cc1NC(=O)c1cccc(NC(=O)Nc2cccc(C(=O)Nc3cc(C(=O)Nc4ccc(S(=O)(=O)O)c5cc(S(=O)(=O)O)cc(S(=O)(=O)O)c45)ccc3C)c2)c1
→ 5&4&0	x
CC(=O)[C@H]1CC[C@H]2[C@@H]3C=CC4=CC(=O)CC[C@@]4(C)[C@H]3CC[C@]12C
→ 2	x
C[C@H]1C2=C3C(CC[C@H]4C(OCc5ccc(F)cc5C(F)(F)F)OC[C@](C)([C@@H]34)N(C(=O)OC(C)(C)C)C2)C2COC(=O)OCC21 (stereo partly drawn)
→ -1	x
NC(=O)NNc1ccccc1
→ -13	x
O=c1cc(-c2ccc(O)cc2)oc2cccc(O)c12
→ -14	x
CCCC/C=C/C(NC(=O)Oc1cccc(C(F)(F)F)c1)c1ccccc1 (stereo not drawn)
→ -6	x
CC#CCN1c2ccccc2[C@]23C[C@@H](C(=O)OC)N(S(=O)(=O)c4ccc(C)cc4)C2=NC(C(=O)OC)=C(C(=O)OC)[C@H]13
→ 6	x
COC(=O)C(CN)c1c[nH]c2ccc(OC)cc12 (stereo not drawn)
→ -6	x
COC1C(O)C(CO)OC1n1cnc2c(=O)[nH]c(N)nc21 (stereo not drawn)
→ -1	x
CCCCc1nc2c(c3c1C[C@H](C)OC3)CN(C(=O)NCCCC(=O)OCC)CC2
→ 5	x
O=c1cc(-c2ccccc2)oc2c(O)c(O)ccc12
→ -11	x
COc1ccc2c(c1)O[C@H](c1ccc3c(c1)OCO3)[C@@H](OC(=O)NCc1ccc3c(c1)OCO3)C2=O
→ -3	x
COc1ccc2[nH]cc(CCNc3ncnc4ccc(-c5ccccc5CN(C)C)cc34)c2c1
→ -8	x
COc1ccc2[nH]cc(CCNc3ncnc4ccc(-c5ccccc5C#N)cc34)c2c1
→ 2	x
Cn1nnnc1SCC1=C(C(=O)O)N2C(=O)C(NC(=O)C(OC=O)c3ccccc3)C2SC1 (stereo not drawn)
→ 2	x
Cn1cc(C=C2C(=O)Nc3cccnc32)c2ccccc21
→ -7	x
C[C@@H](C(=O)N[C@@H](CO)Cc1ccccc1)[C@@H]1C[C@@]1(C)[C@@H](NC(=O)OCc1ccccc1)c1ccccc1
→ -21	x
Cc1cnc(CNc2ncncc2-c2ccc(C(=O)N(C)C)cc2)cn1
→ -1	x
COc1cc(C/C=C\c2ccccc2)c(OC)cc1O
→ -14	x
CCCCC/C=C\C/C=C\C/C=C\CCCCCCC(=O)NCC(=O)O
→ -5	x
Cc1ccc([S+](=O)([O-])N(c2ccccc2)[S+](=O)([O-])C(F)(F)F)cc1
→ 0	x
COCCNc1nc(C)nc2c1nc(-c1ccccc1)n2C1CCN(Cc2ccccc2)C1 (stereo not drawn)
→ -8	x
CCCCNc1nc(C)nc2c1nc(-c1ccccc1)n2CCN(C)C
→ -1	x
CN(C)Cc1ccccc1-c1ccc2ncnc(NCc3ccccc3)c2c1
→ -1	x

(next part)
Under each structure – GLA inh pH 4.5	miR-21 FLuc
Cc1ccc(C(=O)O[C@H](C(=O)O)[C@@H](OC(=O)c2ccc(C)cc2)C(=O)O)cc1 (tested in a mixture with another compound)
→ -5	x
COC(=O)[C@@H](O)CC[C@@H](C)Cc1c(OC)c(OC)c(C)c(OC)c1OC
→ -3	x
CCNCCCNCCCNCCCNCC
→ -2	x
CCC/C=C(\CCC)C(NS(=O)(=O)c1ccc(Cl)cc1)c1ccccc1 (stereo not drawn)
→ -11	x
COC(=O)CCCC1=CC2=C(c3ccccc3)C(=O)C(C)(OC(=O)C3CCCC3)C(=O)C2=CO1 (stereo not drawn)
→ -12	x
COCC(=O)N1CCc2nc(-c3ccc(OC)cc3C)c3c(c2C1)CO[C@@H](c1ccccc1)C3
→ -3	x
COC(=O)[C@@]1(Cc2ccc(OC)cc2)[C@H]2c3cc(C(=O)N4CCCC4)n(Cc4nc5ccccc5[nH]4)c3C[C@H]2CN1C(=O)c1ccccc1
→ -4	x
N#Cc1cccc(-c2ccc3ncnc(NCc4cccnc4)c3c2)c1
→ 1	x
CC[C@@H]1C(c2cccc(C)c2)=NN(c2ccc(Br)cc2)[C@H]1C(=O)N1CCOC1=O
→ 0	x
CC1(C)CC2/C(CO)=C/C=C/[C@](C)(O)CC[C@]21O (stereo partly drawn)
→ -1	x
Cc1nc(N2CCOCC2)c2nc(-c3ccccc3)n(CC(C)(C)CN(C)C)c2n1
→ -3	x
O=C(O)c1ccc(N[C@@H]2OC[C@@H](O)[C@@H](O)[C@@H]2O)cc1
→ 0	x
O=C1CC[C@@]23/C=C/C(=O)NCCCCNCCCNC(=O)/C=C/c4ccc(c2c4)OC3C1 (stereo partly drawn)
→ 3	x
COc1ccc(C2=CC3=C(Br)C(=O)C(C)(OC(=O)c4cnc5ccccc5n4)C(=O)C3=CO2)cc1 (stereo not drawn)
→ -2	x
O=c1cc(-c2ccc(O)c(O)c2)oc2cccc(O)c12
→ -16	x
COC(=O)c1ccc(C(NC(=O)OCc2ccccc2)/C(=C/[C@@H](C)C(=O)NCc2ccc(OC)c(OC)c2)c2cccnc2)cc1 (stereo partly drawn)
→ 2	x
COc1ccc2[nH]cc(CC(N)C(=O)O)c2c1 (stereo not drawn)
→ 3	x
COc1ccc(C(=O)N(O)c2ccccc2)cc1
→ 2	x
COCOc1cc(OC)ccc1C(=O)/C=C/c1ccc2c(c1)OCO2
→ -10&-9	x
Cc1nc(N2CCOCC2)c2nc(-c3ccccc3)n(CCCN3CCOCC3)c2n1
→ 1	x
CC(C)CCCC(C)C1CCC2C3CC=C4CC(O)CC[C@@]4(C)C3CC[C@@]12C (stereo partly drawn)
→ 5	x
NC[C@@H](O)c1ccc(O)c(O)c1
→ 1	x
C[C@@]12CCC(=O)C=C1C=CC1C2CC[C@]2(C)C1CC[C@@]21CCC(=O)O1 (stereo partly drawn)
→ 1	x
COc1ccc2c(c1)OC/C(=C\c1ccc(OC)c(O)c1)C2=O
→ -22	x
Cc1cc(C)cc(N2C(=O)CCSC23C(=O)N(Cc2ccccc2)c2ccccc23)c1 (stereo not drawn)
→ x	1%
COc1ccc(NC(=O)c2oc3ccccc3c2NC(=O)c2cc3ccccc3o2)cc1
→ x	-8%
O=C(NCc1ccccc1F)c1ccc(CN2CC(=O)N3CCCCC3C2=O)cc1 (stereo not drawn)
→ x	-6%
COc1ccc(-c2c3c(=O)n(C)c(=O)n(C)c3c3c(C)nc4ccccc4n23)cc1
→ x	0%

Sorted by the number under GLA inh pH 4.5 (high to low): some entries from above.
Under each structure – GLA inh pH 4.5	miR-21 FLuc
CC(C)CCCC(C)C1CCC2C3CC=C4CC(O)CC[C@@]4(C)C3CC[C@@]12C (stereo partly drawn)
→ 5	x
Cc1nc(N2CCOCC2)c2nc(-c3ccccc3)n(CCCN3CCOCC3)c2n1
→ 1	x
COc1ccc2c(c1)OC/C(=C\c1ccc(OC)c(O)c1)C2=O
→ -22	x

Screening results: PubChem, National Center for Advancing Translational Sciences (NCATS)
